CDC25B-CDK2 inh: human CDC25B-CDK2/CyclinA binding inhibition. P30305+P24941. AID 1259370. HTRF CDC25B-CDK2/CyclinA binding, anti-His/anti-Flag; active compounds read high. z-score (test concentration not listed). hit rate 0.72% among 94,000;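 note: score is relative to mean and SD of negative controls; strong numbers were not always called active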
TAR Tat displ: HIV-1 TAR-Tat binding disruption. HIV-1 TAR RNA, Tat peptide displacement FRET; active compounds read high. z-score (no concentration beside the values). AID 1259389. hit rate 0.6% among 100,000;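 note: score is relative to mean and SD of negative controls; some compounds called inactive have numbers as strong as hits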
Active calls of the source: *; x = not tested or not shown.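 Rule for the calls: active = z-score from 3 up in half or more of its runs; inactive = the rest.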 Rows were taken by chance; 0.9% or so of the library scored in one or more.

SMILES	CDC25B-CDK2 inh	TAR Tat displ
CCN(CC)S(=O)(=O)c1ccc2c(c1)CC(C(=O)NCCN1CCCC1)N2C(C)=O (configuration not stated)	x	1.2
CCc1ccc(-c2cc(C)no2)cc1S(=O)(=O)N1CCN(c2ncccn2)CC1	x	2.8
c1ccc(Cn2c(NCc3ccccn3)nc3ccccc32)cc1	-2.2	-0.98
O=C(OCCN=C1NS(=O)(=O)c2ccccc21)c1ccc(S(=O)(=O)N2CCOCC2)cc1	-0.82	0.93
Cc1csc2sc(/C=C(\C#N)C(=O)c3ccc(Cl)cc3)c(C)c12	-2.1	x
Cc1ccc(CNc2nc3ccccc3c3nc(-c4cccnc4)nn23)cc1	-0.89	-0.21
CC(=O)c1c(C)[nH]c(C(=O)N2CCN(c3ccccc3)CC2)c1C	-1.6	x
Cc1cccc(C)c1NC(=O)CCN1CCOCC1	-2.1	x
O=S(=O)(NC1CCCc2ccccc21)c1ccc2c(c1)CCN2 (configuration not stated)	x	1.4
Cc1csc2nc(CSc3nnc(NC(=O)c4ccco4)s3)cc(=O)n12	x	2.8
c1ccc(-c2nc3nc4ccccc4n3[nH]2)cc1	-0.43	-0.41
O=c1ccn([C@@H]2O[C@H](COP(=O)(O)OP(=O)(O)OP(=O)(O)O)[C@@H](O)[C@H]2O)c(=O)[nH]1	x	1.4
O=C(NCC(c1ccco1)N1CCCCC1)c1cccs1 (configuration not stated)	1.5	0.47
Cc1ccc(CNC(=O)c2noc3c2CCc2sccc2-3)o1	x	-0.03
Clc1ccc(-c2csc(Nc3ncccn3)n2)cc1	-1.7	x
Cc1ccc2cc(CCNC(=O)C3CC3)c(=O)[nH]c2c1C	-0.43	x
COc1ccc2nc3sc(C(=O)Nc4ccc(OC)c(OC)c4)cc3cc2c1	-1.3	x
Cc1cc(Cl)ccc1NC1c2ncccc2C(=O)N1Cc1cccs1 (configuration not stated)	x	0.63
CCN(CC)CCCNC(=O)NC1COc2ccccc2C1 (configuration not stated)	x	1
COC(=O)c1ccc([C@H]2Nc3ccc(S(=O)(=O)Nc4ccccc4F)cc3[C@H]3C=CC[C@H]32)cc1	-2.2	x

Entries of single compounds as entered above.
Shown for `O=C(NCC(c1ccco1)N1CCCCC1)c1cccs1` (configuration not stated) = CDC25B-CDK2 inh: 1.5; TAR Tat displ: 0.47
Shown for `Cc1csc2nc(CSc3nnc(NC(=O)c4ccco4)s3)cc(=O)n12` = CDC25B-CDK2 inh: x; TAR Tat displ: 2.8

(cont.)
SMILES	CDC25B-CDK2 inh	TAR Tat displ
O=C1CCCN1CCc1ccccn1	-1.6	x
CCOC(=O)C1CCN(C2CC(=O)N(c3ccc(Cl)cc3)C2=O)CC1 (configuration not stated)	-0.27	0.08
Cc1csc2nc(CSc3nc4ccc(NC(=O)c5cccs5)cc4s3)cc(=O)n12	x	1.7
COc1ccc(-n2c(C)cc(CNS(=O)(=O)c3cc(OC)ccc3OC)c2C)cc1	x	-1
CCN1CCN(c2nc(NCc3ccc(C)cc3)c3cnn(C)c3n2)CC1	x	0.42
Cc1nc(NC(=O)c2ccccc2)sc1-c1csc(Nc2ccc(O)cc2)n1	-0.78	x
COCCNC(=O)C1CCCN(c2nn3c(=O)cc(C)nc3s2)C1 (configuration not stated)	-1.2	-0.54
Cc1ccc(-c2c(C)c(-c3ccc(F)cc3)nc(N)c2C#N)o1	0.42	3.3
CCn1c(-c2cccc(Cl)c2)n[nH]c1=S	-0.32	x
O=C(O)CN1C(=O)C2CCCN2C(=O)c2ccccc21 (configuration not stated)	0.58	1.2

A draw from above in order of formula weight, low to high:
SMILES	CDC25B-CDK2 inh	TAR Tat displ
O=C1CCCN1CCc1ccccn1	-1.6	x
CCn1c(-c2cccc(Cl)c2)n[nH]c1=S	-0.32	x
Cc1csc2nc(CSc3nc4ccc(NC(=O)c5cccs5)cc4s3)cc(=O)n12	x	1.7

Carrying on.
SMILES	CDC25B-CDK2 inh	TAR Tat displ
Cc1ccc(OCC(O)CN2C(=O)NC(C)(C)C2=O)cc1 (configuration not stated)	0.69	0.25
COc1ccc(-n2nnc(-c3nc(-c4cccs4)no3)c2N)cc1OC	x	0.1
CCc1cc(Nc2cc(C)ccc2OC)n2ncnc2n1	-0.36	0.48
CCN(CCS(=O)(=O)N1CCNCC1)S(=O)(=O)c1ccccc1	x	2.1
CC1CC(C)CN(CCCN2C(=O)c3cc4sccc4n3CC2(C)C(=O)NC2CCCCC2)C1 (configuration not stated)	-1.2	2.9
Nc1ccccc1Nc1c([N+](=O)[O-])cc(C(F)(F)F)cc1[N+](=O)[O-]	-1.5	x
O=C(c1sc(=S)n2c1[nH]c(=O)c1ccccc12)N1CCCCC1	-1.6	x
CCOc1ccc(-c2cc(N)n(S(=O)(=O)c3ccc(F)c(C)c3)n2)cc1	-0.92	1.1
O=C(O)c1ccc(CSC2CCCCC2)cc1	-1.5	0.92
Cc1ccc2nc(CCCc3nc4ccc(C)cc4[nH]3)[nH]c2c1	0.96	-1.1
Cc1c(C(=O)N2CCN(C)CC2)sc2ncn(CC(=O)N3CCC(C)CC3)c(=O)c12	x	1.3
Cc1ccc(NS(=O)(=O)c2cc3c4c(c2)C(C)C(=O)N4CCC3)c(C)c1 (configuration not stated)	x	1.2
O=C1CSC2(CCCCC2)N1c1ccc(Br)cc1	-0.88	x
COc1ccc(-c2coc3c(OC)c(O)ccc3c2=O)cc1	x	1.2
Cn1cccc1CNC(=O)Nc1ccc(Cl)cc1	x	1
CN1C(C(=O)NC(C)(C)CO)=CC(c2ccc(F)cc2)=NS1(=O)=O	-3.8	2.1
CCN1CCN(C(=O)CCc2nnc3ccc(N4CCCCC4)nn23)CC1	x	0.11
c1ccc2c(c1)OCC(CNc1nnc(Cc3ccncc3)c3ccccc13)O2 (configuration not stated)	-0.75	0.05
Clc1cccc(CN2CCc3nc(Nc4ccc5c(c4)OCCO5)ncc3C2)c1	x	1.1
Cn1cc(C2=C(c3ccc(Cl)cc3Cl)C(=O)NC2=O)c2ccccc21	0.8	-4.4
CC(C)COc1ccc(/C(=N\O)c2ccccc2)cc1	-0.89	x
OC[C@H]1O[C@@H](Sc2ccccc2)[C@H](O)[C@@H](O)[C@H]1O	-0.9	x
COc1ccc(S(=O)(=O)c2cn(C)c3cc(N4CCCC4)c(F)cc3c2=O)cc1	x	1.3
O=C(Cc1cccs1)Nc1c(C(=O)N2CCN(c3ccc(F)cc3)CC2)oc2ccccc12	x	1
Cc1ccc2nc(Nc3nc(C)cc(=O)[nH]3)nc(C)c2c1	1.3	-0.82
CS(=O)(=O)c1ccc(-c2cccc(NS(=O)(=O)c3ccc(F)cc3F)c2)nn1	x	-0.41
CC1CCN(c2c(NCC3CCC(C(=O)N(C)C4CCCCC4)CC3)c(=O)c2=O)CC1 (configuration not stated)	-1.9	x
CNC(=O)C(=O)c1c(C)n(C)c2ccccc12	-0.84	x
Cn1c(=O)oc2cc(S(=O)(=O)NCCn3c(-c4ccc(F)cc4)nc4cccnc43)ccc21	x	-3.4
Cc1ccc(C)c(Cn2c(=O)c3c(nc4n3CCN4Cc3ccco3)n(C)c2=O)c1	x	1.9
C=CCNC(=O)c1sc(=S)n(CCc2ccccc2)c1N	x	0.74
CCOc1nc2cccnc2n(CCN2CCOCC2)c1=O	x	1.6
COC(=O)c1cc2c(cc1NC(=O)c1nn(C)c3c1COc1ccccc1-3)OCO2	-0.24	-0.94
CN(C)CCn1c2c(c(SCC(=O)Nc3nc4ccccc4s3)nc1=O)CCC2	x	0.8
O=P(CCC(F)(F)F)(CCC(F)(F)F)CCC(F)(F)F	-2.2	x
c1ccc(Oc2ccc(-c3cc(N4CCOCC4)n[nH]3)cc2)cc1	-0.09	x
COC(=O)c1ccc(-c2cc(C(=O)O)c3c(-c4ccc(Br)cc4)[nH]nc3n2)cc1	x	2.3
CCOCCCNC(=O)Cn1nc(CC)n2c(cc3sc(C)cc32)c1=O	-1.3	0.52
CCC(CC)C(=O)N(c1ccc(F)cc1)C1C=CS(=O)(=O)C1 (configuration not stated)	-2	-1.4
CN1c2ccccc2-c2nc(SCC(=O)Nc3ccc4c(c3)OCO4)ncc2S1(=O)=O	x	0.29
O=C(O)c1nccnc1C(=O)Nc1ccc(Cl)cn1	0.24	0.83
Cc1ccc2nc(CN3CCN(S(=O)(=O)c4cccc5nsnc45)CC3)oc2c1	x	1.9
O=C(Nc1ccccc1Br)c1nc2ccccc2nc1Cl	0.26	-0.12
COc1ccc(Cl)cc1NS(=O)(=O)c1ccc(-c2ccc(=O)[nH]n2)s1	x	0.73
COc1ccc(-c2cc(C(F)(F)F)n3nc(N)nc3n2)cc1	-0.46	0.18
Cc1cc(N2CCN(C3CCCCC3)CC2)nc2cccc(O)c12	0.39	0.01
O=C(c1ccco1)N1CCN(C2CCCCC2NS(=O)(=O)c2ccccc2)CC1 (configuration not stated)	-0.36	-0.09
O=C(Nc1ccc(Cl)cc1)c1cccs1	-2.9	x
O=C(Nc1ccc(Cl)cc1)Nc1ccccc1Oc1ccccc1	-0.07	x
COC(=O)C1=C(C)NC2=C(C(=O)CC(c3cccs3)C2)C1c1ccc2c(c1)OCO2 (configuration not stated)	0.25	0.19

(continued)
SMILES	CDC25B-CDK2 inh	TAR Tat displ
c1ccc(N2CCN(Cc3nnc(-c4ccc5c(c4)OCO5)o3)CC2)cc1	-0.27	1.2
CCOC(=O)c1c(C)[nH]c(C)c1S(=O)(=O)Nc1ccc(F)cc1F	x	0.5
Cc1nc2ccc(S(=O)(=O)NC(C(=O)Nc3nc4ccc(Cl)cc4s3)C(C)C)cc2s1 (configuration not stated)	-1.7	x
Cn1c(Cn2c(=O)sc3ccccc32)nnc1SCc1ccccn1	-0.28	x
COc1cc(-c2nc3ccc(C)cn3c2Nc2ccc3c(c2)OCCO3)ccc1O	-2.7	x
COc1ccc(-c2nn3c(-c4ccc(OC)cc4)nnc3c3ccccc23)cc1	-0.04	-0.75
CCc1nn(CC(=O)N2CCc3ccccc3C2)c(=O)c2cc3sc(C)cc3n12	-2.1	0.7
CCC(C)NC(=O)CCC(=O)n1ncc2ccc(Cl)cc21 (configuration not stated)	0.18	-2.5
O=c1[nH]c2ccc(S(=O)(=O)Nc3cccc(C(F)(F)F)c3)cc2s1	0.74	x
O=C(Cn1nnc(-c2ccccc2Cl)n1)N/N=C/c1cc(Cl)cc(Cl)c1O	-0.48	x
Cc1sc(-n2cccc2)c(C(C)NC(=O)Nc2ccc(Cl)cc2)c1C (configuration not stated)	-0.2	1.6
CCCCn1nnc2c(=O)oc3ccccc3c21	-0.95	0.83
COc1ccc(S(=O)(=O)CCC(=O)Nc2sc3c(c2C(N)=O)CCC3)cc1	x	1.5
CSc1ccc(CCNC(=O)Cn2c(=O)oc3ccccc32)cc1	x	0.29
Cc1nc2c(c(C)nn2C(C)(C)C)c(C)c1CCC(=O)NCC1CCN(C2CCCC2)C1 (configuration not stated)	0.05	-0.36
CNC(=O)C(=O)NCC(c1ccco1)S(=O)(=O)c1cccs1 (configuration not stated)	x	2.2
O=C(NCCN=C1NS(=O)(=O)c2ccccc21)c1cccc2ccccc12	-0.14	0.75
Clc1ccc2nc(-c3ccco3)cc(-c3ccccc3)c2c1	-3.1	-1.4
CCC(=O)Oc1c(C)cc(O)c2ccccc12	-0.69	x
COc1cccc2c1Oc1nc(-c3ccccc3O)[nH]c(=O)c1C2	-1.5	1.1

Given with bars between the fields: part of the list above
smiles | CDC25B-CDK2 inh | TAR Tat displ
O=C(NCCN=C1NS(=O)(=O)c2ccccc21)c1cccc2ccccc12 | -0.14 | 0.75
COc1cccc2c1Oc1nc(-c3ccccc3O)[nH]c(=O)c1C2 | -1.5 | 1.1
CCCCn1nnc2c(=O)oc3ccccc3c21 | -0.95 | 0.83
Clc1ccc2nc(-c3ccco3)cc(-c3ccccc3)c2c1 | -3.1 | -1.4
CSc1ccc(CCNC(=O)Cn2c(=O)oc3ccccc32)cc1 | x | 0.29
COc1ccc(S(=O)(=O)CCC(=O)Nc2sc3c(c2C(N)=O)CCC3)cc1 | x | 1.5

Other compounds
SMILES	CDC25B-CDK2 inh	TAR Tat displ
O=C(COc1ccc2c3c(c(=O)oc2c1)CCC3)OC1CCCCC1	-1.1	x
CCN(CC)C(=O)CSc1cn(CC(=O)N2CC(C)OC(C)C2)c2ccccc12 (configuration not stated)	x	0.23
CC(=O)N(c1ccc(C)cc1)C1SC(=O)N(c2ccc(C)cc2)C1=O (configuration not stated)	0.49	x
CCN1CCC2(CC1)c1sc3c(c1CCN2C(=O)Nc1ccccc1)CCCC3	x	1.6
O=C(Oc1c(-c2ccccc2)c(=O)n2c3c(cccc13)CC2)c1ccco1	-1.8	x
Cn1cccc1Cc1nnc(SCC(=O)NC2CCCC2)n1-c1ccc(Cl)cc1	-1.9	-1.1
CN(CC(=O)N1CCn2c1nc1ccccc12)S(=O)(=O)c1ccc2c(c1)CCC(=O)N2	0.77	x
COC(=O)c1ccc2c(c1)NC(=O)CN2C	x	1.2
O=S(=O)(c1ccccc1)c1nnn2c1nc(NCc1ccc(F)cc1)c1ccccc12	-1	0.41
CCCC1c2ccc(C)n2CCN1C(=O)Nc1cc(C)ccc1C (configuration not stated)	-1.6	-8.1
O=C(Cn1nnc(-c2cccs2)n1)NNC(=O)c1ccc(Cl)cc1	-1.8	x
CC(=O)Oc1cc2c(c(C)c1OC(C)=O)CC=C1[C@@]2(C)CC[C@@]2(C)C3C[C@](C)(C(=O)O)CC[C@]3(C)CC[C@]12C (some centres not stated)	x	1.9
Cc1cccc2cc(-c3noc(-c4ccccc4F)n3)c(=O)[nH]c12	-1.8	-0.49
CCc1cc2c3c([nH]c2cc1S(=O)(=O)N1CCCC1)CCCC3=O	x	-0.21
COc1cccc(-c2noc(NC3CC3)n2)c1	x	-1.3
COc1ccc(C2CC(=O)C3=C(C2)Nc2ccccc2NC3c2ccc(OC(C)=O)cc2)cc1OC (configuration not stated)	-3	-0.13
O=C(O)c1cn[nH]c1-c1ccccc1	x	2
O=C(NCc1cccs1)c1cccc(N2CCCC2=O)c1	-1.3	x
C=CCNC(=O)C(=O)NCCc1c[nH]c2ccccc12	0.33	1.7

Screens (PubChem)
